Six1-Eya2 blk = inhibitors of human Six1/Eya2 interaction | AlphaScreen GST-Six1/His-Eya2 binding, biochemical; hits give low values; control for the full effect not named in the record | activity change, % (no concentration beside the values) | 360,000 compounds, 0.56% hits | AID 651725; in the data active = activity change below about -65%; inconclusive = about -30% to -65%; inactive = above about -30%; note: % is set by controls: 0 for no effect and ±100 for the full control effect
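AlphaScreen luminescence read after one hour at 37 °C in darkness. Pin-transferred compounds met GST-Six1 and His-Eya2 protein (5X stock 250 nM/500 nM) plus glutathione donor and Ni-chelate acceptor beads (5X, 50 ug/mL).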
D2 agonist = agonists of human D2 dopamine receptor (beta-arrestin). activation, % (test concentration not listed). AID 624465. P14416. 360,000 compounds, 0.084% hits. DiscoveRx PathHunter D2 beta-arrestin, luminescence, 90 min; 100% = 57 uM dopamine signal; in the data active = activation above about 40%; inconclusive = about 15% to 40%; inactive = below about 15%; note: compound concentration not given in the record; the text of the record calls up to 30% inactive
Target sequence (P14416 whole entry, looked up): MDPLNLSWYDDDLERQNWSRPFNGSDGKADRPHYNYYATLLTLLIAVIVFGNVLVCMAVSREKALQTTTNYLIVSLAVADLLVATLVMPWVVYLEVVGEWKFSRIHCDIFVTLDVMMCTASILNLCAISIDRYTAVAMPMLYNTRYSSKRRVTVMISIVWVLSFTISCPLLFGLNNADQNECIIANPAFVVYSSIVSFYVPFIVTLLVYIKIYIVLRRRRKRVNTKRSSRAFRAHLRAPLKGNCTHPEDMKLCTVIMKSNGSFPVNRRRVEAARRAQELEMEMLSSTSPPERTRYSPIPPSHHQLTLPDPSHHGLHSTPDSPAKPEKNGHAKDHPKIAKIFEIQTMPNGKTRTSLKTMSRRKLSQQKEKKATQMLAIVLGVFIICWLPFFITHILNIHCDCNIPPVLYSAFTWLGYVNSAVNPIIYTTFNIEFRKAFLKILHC
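Agonist mode: compounds alone added to overnight-plated D2 PathHunter cells for 90 min at 37 C, with 57 uM final dopamine (EC100) defining full response. Beta-arrestin recruitment detected by chemiluminescent reagent, read after 1 h at ambient temperature.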
PINK1 expr mod = modulators of PINK1 expression | PINK1 immunofluorescence, high-content cytometry, 24 h | Potency, µM (doses to about 76.6 µM), for inactives: at the highest dose activation (PINK1 increase), actives largely listed as activators | 410,000 compounds, 0.2% hits | AID 624263; active = well fitted activation curve with a large enough effect; inconclusive = small, poorly fitted or top-dose-only effect; inactive = flat fitted curve, though single readings scatter; cell line not stated here;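 note: potency is the fitted concentration of half-maximal effect; % of control where 0% means no effect; nearly all actives have a fitted effect of over 65% in size; a mitochondrial uncoupler was the plate control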
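Measures PINK1 amount and localization on or inside mitochondria by immunofluorescence. Stable cells get compounds at 5 concentrations for 24 hours before fixation and staining; CCCP controls included.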
Sfp PPTase inh = blocks B. subtilis Sfp PPTase activity. Biochemical Sfp PPTase activity, qHTS. Potency, µM, inactives show max response, negative = inhibition, most hits filed as inhibitors. 310,000 compounds, 3.5% hits. AID 1490; active = well fitted inhibition curve with a large enough effect; inconclusive = small, poorly fitted or top-dose-only effect, or another doubt; inactive = no such curve, though single readings can be large or run the other way;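 note: the enzyme is Sfp with the accession as filed and its product quenches rhodamine fluorescence; potency is the fitted concentration of half-maximal effect; 0% = enzyme reaction without inhibitor and -100% = no enzyme wells; top concentration of the series not given in the record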
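Sfp 15 nM + cpd, 15 min RT; start w/ rhodamine-CoA 5 uM, BHQ-2-YbbR 12.5 uM (final); 50 mM Hepes pH 7.6, 10 mM MgCl2, 0.01% NP-40, 0.01% BSA; read 525/598 nm at 0 and 30 min.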
D2 potentiator = positive allosteric modulators of human D2 dopamine receptor; P14416; DiscoveRx D2 beta-arrestin cells, luminescence, 90 min; 100% = 57 uM dopamine signal; potentiation, % (test concentration not listed); 360,000 compounds, 0.23% hits; AID 624464; active = potentiation of 50% or more; inconclusive = 30% to 50%; inactive = 30% or less;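 note: compound concentration not given in the record; tested on top of an EC20 dose of dopamine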
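D2 cells co-treated with compound plus 50 nM dopamine (EC20) for 90 min at 37 deg C to detect potentiation. Beta-arrestin recruitment was read as enzyme-fragment luminescence after 1 h at ambient temperature. Full response was set by 57 uM dopamine.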
TRPV1 PAM = enhances activation of the human vanilloid receptor TRPV1 | 320,000 compounds, 0.02% hits | TRPV1-expressing cells, Fluo-8 calcium influx, capsaicin EC20 potentiation; host cell line not named in the record; control for the full effect not named in the record | Q8NER1 | potentiation, % at 8.33 µM; active means potentiation above 80%; inconclusive means 30% to 80%; inactive means below 30%; note: 0% is about no effect
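Cells expressing TRPV1 were dye-loaded with Fluo-8 and read kinetically: 10 s baseline, 3 min after compound (agonist portion), then 2 min after EC20 capsaicin (allosteric enhancer portion). Calcium-bound dye fluorescence at 480/520 nm.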
CtBP-E1A blk = CtBP/E1A binding inhibition; AID 651724; activity change, % (no concentration beside the values); 340,000 compounds, 0.49% hits; AlphaScreen GST-E1A/His-CtBP binding, 1536-well; hits give low values; control for the full effect not named in the record; in the data active means activity change below about -65%; inconclusive means about -30% to -65%; inactive means above about -30%; note: % is set by controls: 0 for no effect and ±100 for the full control effect
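Homogeneous bead-based format: GST-tagged E1A captured on glutathione donor beads, His-tagged CtBP on nickel acceptor beads; compounds precede bead addition by 2 h at 37 °C.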
An asterisk follows results filed as active; ? = inconclusive; . = no result given; [ ] = remark or other dose.

The first 4 records, to show the layout:
Assay codes: A = Six1-Eya2 blk; B = D2 agonist; C = PINK1 expr mod; D = Sfp PPTase inh; E = D2 potentiator; F = TRPV1 PAM; G = CtBP-E1A blk
Molecule: Cc1nc(C(=O)NNC(=O)c2c(-c3c(Cl)cccc3Cl)noc2C)cs1
  A: 6; B: -4.3; C: -3.5%; D: 20%; E: -1; F: -1; G: 0
Molecule: CSc1nnc(NC(=O)c2cccc(S(=O)(=O)N3CCOCC3)c2)s1
  A: -1; B: -0.3; C: -1.0%; D: 9%; E: 6; F: -16; G: 3
Molecule: Cc1cc(=O)[nH]c(N2CCCC2)n1
  A: 7; B: -0.7; C: 2.6%; D: 13%; E: -9; F: ?; G: 2
Molecule: Cc1ccc(Oc2ccc(Cl)cc2NC(=O)c2ccc(F)cc2F)cc1
  A: 22; B: 3.1; C: 3.6%; D: -28%; E: -11; F: 6; G: .

Main list (from the top)
Assay codes: A = Six1-Eya2 blk; B = D2 agonist; C = PINK1 expr mod; D = Sfp PPTase inh; E = D2 potentiator; F = TRPV1 PAM; G = CtBP-E1A blk
Molecule: Cc1nc(C(=O)NNC(=O)c2c(-c3c(Cl)cccc3Cl)noc2C)cs1
  A: 6; B: -4.3; C: -3.5%; D: 20%; E: -1; F: -1; G: 0
Molecule: CSc1nnc(NC(=O)c2cccc(S(=O)(=O)N3CCOCC3)c2)s1
  A: -1; B: -0.3; C: -1.0%; D: 9%; E: 6; F: -16; G: 3
Molecule: Cc1cc(=O)[nH]c(N2CCCC2)n1
  A: 7; B: -0.7; C: 2.6%; D: 13%; E: -9; F: ?; G: 2
Molecule: Cc1ccc(Oc2ccc(Cl)cc2NC(=O)c2ccc(F)cc2F)cc1
  A: 22; B: 3.1; C: 3.6%; D: -28%; E: -11; F: 6; G: .
Molecule: Cc1nnc(NC(=O)CSc2nc3ccccc3o2)s1
  A: 0; B: -0.8; C: .; D: -2%; E: 1; F: 14; G: -11
Molecule: CCc1ccc(NC(=O)C(C)Sc2nc(-c3ccco3)c(C#N)c(=O)[nH]2)cc1 (stereo unspecified)
  A: -11; B: -3.8; C: 6.8%; D: -11%; E: -1; F: 12; G: -17
Molecule: COc1cccc(NC(=O)C(OC(=O)c2ccc([N+](=O)[O-])o2)c2ccccc2)c1 (stereo unspecified)
  A: -5; B: 8.6; C: 1.1%; D: 11%; E: 8; F: 3; G: 0
Molecule: O=C1CCC(=O)N1c1ccc(S(=O)(=O)Nc2cccc([N+](=O)[O-])c2)cc1
  A: -8; B: -9.6; C: -0.3%; D: 10%; E: -11; F: 5; G: 1
Molecule: Cc1ccc(CNS(=O)(=O)c2ccc(-n3cccn3)cc2)cc1
  A: 4; B: -1.8; C: 3.7%; D: .; E: -9; F: .; G: 3
Molecule: COc1ccc(NC(=O)Nc2ncccc2C)cc1
  A: 5; B: 0.0; C: -1.4%[38.3 µM]; D: 12%; E: 14; F: 10; G: 5
Molecule: COc1cc(/C=C2\C(=O)N(c3ccccc3)N=C2C)ccc1Oc1ccc([N+](=O)[O-])cc1[N+](=O)[O-]
  A: -21; B: 2.3; C: 1.5%; D: -7%; E: ?; F: 4; G: -29
Molecule: COc1ccccc1-c1cccc([C@@H]2C[C@H]3[C@H](CON3C)CN2Cc2ccccc2)c1
  A: -28; B: 0.0; C: 5.0%; D: .; E: .; F: .; G: -20
Molecule: COc1ccc(C(NC(=O)CN2C(=O)NC3(CCc4ccccc43)C2=O)c2ccc(OC)cc2)cc1 (stereo unspecified)
  A: -1; B: -0.5; C: 5.2%; D: .; E: -1; F: 21; G: -1
Molecule: C/C(=N\NC(=S)NCc1ccccc1)c1ccccc1
  A: -13; B: -3.8; C: 3.0%; D: -10%; E: -4; F: 13; G: -27
Molecule: CSc1ccc(-c2sc(Nc3ccccc3)n[n+]2-c2ccc(F)cc2)cc1
  A: -15; B: -5.8; C: 0.0%; D: 13%; E: -15; F: 7; G: -22
Molecule: O=C1CCCCC1(O)Cc1ccc2c(c1)OCO2 (stereo unspecified)
  A: 1; B: 1.4; C: 2.2%; D: .; E: -1; F: .; G: 5
Molecule: CCOC(=O)C1CCC2(CC1)C(C#N)=C(N)Oc1n[nH]c(C)c12 (stereo unspecified)
  A: -4; B: 0.3; C: 3.3%[38.3 µM]; D: 13%; E: 1; F: 0; G: -6
Molecule: COc1cc(OC)cc(C(=O)NC(C)CCc2ccccc2)c1 (stereo unspecified)
  A: -5; B: -2.1; C: 6.5%; D: 9%; E: -7; F: -1; G: .
Molecule: CCOc1ccc(CN2CCN(Cc3cccc4nonc34)CC2CCO)cc1 (stereo unspecified)
  A: 10; B: -1.5; C: 4.3%; D: 8%; E: -19; F: 4; G: 0
Molecule: COc1ccc(S(=O)(=O)N(C)c2ccc(C(=O)NC3CC3)cc2)cc1
  A: 1; B: -0.9; C: 3.9%; D: 11%; E: -2; F: 5; G: 14
Molecule: CC1=C(C(=O)OCC(Cl)(Cl)Cl)N2C(=O)C(NC(=O)Cc3ccccc3)C2SC1 (stereo unspecified)
  A: -1; B: 3.5; C: 0.5%; D: ?; E: -13; F: -14; G: 19
Molecule: COc1cc(/C=N/NC(=O)c2cccc3ccccc23)cc(OC)c1O
  A: -21; B: 7.3; C: 1.0%; D: -11%; E: 7; F: -14; G: ?
Molecule: Cc1cc(C)c(C)c(S(=O)(=O)N2CCN(c3ccc(O)cc3)CC2)c1C
  A: -11; B: 0.9; C: -0.6%; D: -23%; E: -55; F: -9; G: -13
Molecule: O=C(Nc1ccc(F)cc1)c1oc2ccccc2c1NC(=O)C1CC1
  A: 6; B: 2.2; C: 1.2%; D: -5%; E: -14; F: -11; G: -2
Molecule: COc1ccc(CN(C)C(=O)COC(=O)c2c(-c3ccccc3Cl)noc2C)cc1
  A: 18; B: -1.8; C: 0.4%; D: -4%; E: -2; F: -3; G: 3

A section from the list above, for reference:
Assay codes: A = Six1-Eya2 blk; B = D2 agonist; C = PINK1 expr mod; D = Sfp PPTase inh; E = D2 potentiator; F = TRPV1 PAM; G = CtBP-E1A blk
Molecule: Cc1nc(C(=O)NNC(=O)c2c(-c3c(Cl)cccc3Cl)noc2C)cs1
  A: 6; B: -4.3; C: -3.5%; D: 20%; E: -1; F: -1; G: 0
Molecule: CSc1nnc(NC(=O)c2cccc(S(=O)(=O)N3CCOCC3)c2)s1
  A: -1; B: -0.3; C: -1.0%; D: 9%; E: 6; F: -16; G: 3

Next part:
Assay codes: A = Six1-Eya2 blk; B = D2 agonist; C = PINK1 expr mod; D = Sfp PPTase inh; E = D2 potentiator; F = TRPV1 PAM; G = CtBP-E1A blk
Molecule: CN(CC(=O)O)S(=O)(=O)c1ccc2oc3ccccc3c2c1
  A: 1; B: -4.7; C: -0.8%; D: 30%[activator]; E: -2; F: ?; G: 0
Molecule: O=C(Cc1cccs1)NCc1ccco1
  A: 5; B: -1.7; C: -1.5%; D: 24%; E: 23; F: 16; G: 6
Molecule: Cc1cc(Br)cn2c(Cc3ccsc3)c(-c3ccccc3)nc12
  A: -4; B: -4.1; C: 4.1%; D: .; E: -6; F: .; G: 4
Molecule: CC(C)(C)c1ccc2c(c1)C(=O)c1ccccc1C2=O
  A: -24; B: 0.9; C: 25%; D: -13%; E: -26; F: 7; G: -22
Molecule: Cc1c(Cl)cccc1NC(=O)CC1SC(=NCC2CCCO2)NC1=O (stereo unspecified)
  A: -1; B: -4.2; C: -0.7%; D: -8%; E: -16; F: -2; G: -8
Molecule: Cc1cc(-c2nc3ncccc3o2)ccc1NC(=O)CC(C)C
  A: 7; B: -7.0; C: 1.6%; D: 10%; E: 2; F: -16; G: -2
Molecule: CCOc1ccc(C(=O)NC2CCN(C(=S)Nc3ccccc3C)CC2)cc1
  A: 0; B: -19; C: 2.2%; D: 28%; E: 2; F: 3; G: 10
Molecule: COc1ccc(CNC(=O)C2(CC3CC(c4ccccc4)=NO3)CCN(C(=O)CCCCCBr)CC2)cc1 (stereo unspecified)
  A: -4; B: -3.5; C: -0.4%; D: .; E: -16; F: .; G: -4
Molecule: Cc1cc(C)c(S(=O)(=O)NCc2ccc3c(c2)cc(C)n3C)c(C)c1
  A: -18; B: 2.7; C: 6.9%; D: -15%; E: -5; F: 26; G: -2
Molecule: CC1=C(C(=O)N2CCOCC2)CC(CC(=O)NCCCCc2ccccc2)C(=O)N1Cc1ccc(C(C)(C)C)cc1 (stereo unspecified)
  A: -3; B: 3.4; C: 9.4%; D: .; E: 3; F: .; G: 7
Molecule: O=C1c2ccccc2C(Nc2ccc3nc(-c4cccnc4)[nH]c3c2)N1Cc1ccco1 (stereo unspecified)
  A: -16; B: 2.0; C: 1.9%; D: -6%; E: -1; F: 12; G: -3
Molecule: Cc1ccccc1N1C(=O)CC(c2c[nH]c3ccccc23)C1=O (stereo unspecified)
  A: 5; B: -6.6; C: 1.9%; D: 7%; E: -7; F: 16; G: 11
Molecule: CC(=O)Nc1cccc(NC(=O)Nc2cccc(Cl)c2C)c1
  A: 1; B: -5.2; C: 5.0%; D: 4%; E: -8; F: 1; G: 0
Molecule: COc1cccc(C(=O)NCCSc2ccc(Br)cc2)c1
  A: 11; B: -1.2; C: 0.1%; D: -5%; E: -10; F: 2; G: .
Molecule: CCOC(=O)N1CCc2c(sc3nc[nH]c(=O)c23)C1
  A: -24; B: -10; C: -0.1%; D: 10%; E: -4; F: -2; G: 2
Molecule: O=C(O)CCn1nnc2ccccc21
  A: -2; B: -6.5; C: 0.2%; D: 11%; E: -2; F: .; G: -1
Molecule: Cc1cc(=O)[nH]n(CCO)c1=O
  A: -2; B: -1.3; C: -0.1%; D: 4%; E: -5; F: -1; G: 5
Molecule: COc1cccc(NC(=O)CSc2ccc(-c3sc(C)nc3C)nn2)c1
  A: -20; B: 1.7; C: -0.3%; D: -8%; E: 26; F: 5; G: -5
Molecule: O=S(=O)(Nc1ccc(Cl)cc1NS(=O)(=O)c1ccccc1)c1ccccc1
  A: -9; B: 0.8; C: ?; D: .; E: -4; F: .; G: -13
Molecule: O=C1CCC(C(=O)OCc2cc(Cl)ccc2OC(F)F)N1 (stereo unspecified)
  A: 4; B: -1.6; C: 0.7%; D: 6%; E: -18; F: 1; G: -1
Molecule: Cc1ccccc1CSc1nnc(NC(=O)Cc2cccs2)s1
  A: -9; B: 0.7; C: -0.1%; D: -14%; E: -3; F: -6; G: 9
Molecule: CCC(=O)N1CCN(c2ccc(NC(=O)c3ccccc3)cc2)CC1
  A: 0; B: 1.5; C: 0.1%; D: 25%; E: -6; F: 0; G: -9
Molecule: CCOC(=O)C1CCCN(Cc2cccs2)C1 (stereo unspecified)
  A: 4; B: 0.4; C: -0.3%[38.3 µM]; D: ?; E: -14; F: 1; G: 4
Molecule: CCn1c(C)cc(C=C2C(=O)c3ccccc3C2=O)c1C
  A: -2; B: -4.1; C: 2.6%; D: -9%; E: 1; F: -3; G: -7

High-throughput results (PubChem)
